MT1-MMP act inh: MT1-MMP (human) activation inhibition | AID 651647 | 360,000 compounds, 0.061% hits | HT1080 RFP-PRO-GFP cells, GFP/RFP ratio fluorescence, overnight; percent of plate control window, DMSO zero | P50281 | GFP/RFP ratio change, % at 20 µM;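 active means GFP/RFP ratio change of at least 30% with cell ATP level not reduced by more than half and red fluorescence within 50% of control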; further: strong numbers were not always called active
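Compound: 20 µM single dose, 1% DMSO / System: HT1080 RFP-PRO-GFP cells / Controls: DMSO and RFP-L50D-GFP cell wells / Read-out basis: GFP/RFP fluorescence ratio / Schedule: overnight compound exposure at 37 °C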
PABP FP inh: blocks human PABP binding to poly(A) RNA | fluorescence polarization | AID 2014 | P11940 | inhibition, % at 35 µM | 290,000 compounds, 1% hits;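 active means 50% or more with normal probe brightness, or confirmed in later tests; about a fifth of its hits are not listed in these tables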;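 further: calls also rest on retests at 20 µM and on dose response follow-up; controls were probe without protein and protein plus probe with vehicle; some compounds called inactive have numbers as strong as hits; many hits fall short of the cut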
Target sequence (P11940 whole entry, looked up): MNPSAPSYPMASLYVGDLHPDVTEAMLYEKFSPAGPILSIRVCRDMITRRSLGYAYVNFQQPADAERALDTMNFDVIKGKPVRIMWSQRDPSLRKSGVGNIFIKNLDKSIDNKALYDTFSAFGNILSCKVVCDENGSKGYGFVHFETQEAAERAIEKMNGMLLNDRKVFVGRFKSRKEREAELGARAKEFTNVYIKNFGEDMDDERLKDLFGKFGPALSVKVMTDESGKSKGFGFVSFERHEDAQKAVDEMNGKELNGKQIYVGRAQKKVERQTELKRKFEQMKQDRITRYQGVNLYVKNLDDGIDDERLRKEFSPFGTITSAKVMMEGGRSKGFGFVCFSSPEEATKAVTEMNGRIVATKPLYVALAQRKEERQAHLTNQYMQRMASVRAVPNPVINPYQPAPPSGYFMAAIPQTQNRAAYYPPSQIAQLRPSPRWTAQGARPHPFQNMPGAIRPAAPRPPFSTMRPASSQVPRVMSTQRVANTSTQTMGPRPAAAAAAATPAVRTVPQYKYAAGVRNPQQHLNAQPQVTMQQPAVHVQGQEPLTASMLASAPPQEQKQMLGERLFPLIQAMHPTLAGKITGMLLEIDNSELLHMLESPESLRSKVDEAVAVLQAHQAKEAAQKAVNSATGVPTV
Env fusion inh: inhibitors of HIV Env-mediated cell fusion; HeLa-JRFL Env/CEM21 cell fusion, luciferase; inhibition, % at 12.3 µM; 360,000 compounds, 1.1% hits; AID 651610;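 active means mean replicate inhibition score of at least 50 and every replicate individually at or above 50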;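 further: 0% = plate neutral controls and 100% = maraviroc near 300 nM; one replicate is shown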
CSC inhib: cancer stem cell inhibition. cancer stem cell-like cells viability, luminescence. inhibition, % at 7.5 µM. 300,000 compounds, 1.1% hits. AID 2717;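 active means mean at 75% or more and at least half the replicates too; tested in HMLE shEcad cells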;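 further: 0% = median of negative and 100% = median of positive control wells; the first replicate is given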
Rce1 inhib: blocks yeast Ras-converting enzyme | Q03530 | 290,000 compounds, 0.27% hits | yeast membranes, quenched prenylated peptide cleavage fluorescence | calls only;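 active means fall in fluorescence gain of 50% or more versus controls, with final raw signal at or below 3038400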;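 further: plate controls were neutral control wells for no effect and wells lacking membranes for full effect; tested at 10 µM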
eIF4H inh: inhibitors of RNA binding by human eIF4H | Q15056 | eIF4H fluorescence polarization binding assay | inhibition, % at 35 µM | 290,000 compounds, 0.94% hits | AID 2012;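 active means 50% or more with normal probe brightness, or confirmed in later tests; about a fifth of its hits are not listed in these tables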;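 further: calls also rest on retests at 20 µM and on dose response follow-up; 0% = protein and probe with vehicle and 100% = probe without protein; strong numbers were not always called active; many hits fall short of the cut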
UUG fidelity: yeast start codon fidelity modulation | S. cerevisiae UUG-firefly luciferase reporter, luminescence/redox ratio | activity score, % at 18.7 µM | 350,000 compounds, 0.13% hits | AID 602363;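 active means replicate mean at a twofold rise or more, about +100% in these data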;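 further: firefly luciferase made from a UUG start codon reports start codon fidelity; reporter light over untreated wells divided by growth signal over untreated wells; some hits fall short of that in this replicate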
MT1-MMP act inh RFP: further read-out of MT1-MMP act inh, marked with its call; RFP signal change, %; measured here: RFP expression control read;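 0 = vehicle wells; hits needed this value within 50% of zero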
* marks the source's active call; other numbers are inactive results; i = inactive; / = not tested or not shown.

| smiles | MT1-MMP act inh | MT1-MMP act inh RFP | PABP FP inh | Env fusion inh | CSC inhib | Rce1 inhib | eIF4H inh | UUG fidelity |
| --- | --- | --- | --- | --- | --- | --- | --- | --- |
| COc1ccccc1CNC(=O)c1cc(-c2ccccc2)n(Cc2cc(C)no2)n1 | -1 | -3 | / | -26 | -4 | / | / | 8 |
| Cc1c(NS(=O)(=O)c2cccc([N+](=O)[O-])c2)c(=O)n(-c2ccccc2)n1C | 1 | 2 | -11 | 11 | -9 | i | -6 | -10 |
| CC(=O)c1ccc(NC(=O)C(C)O/N=C(\N)c2ccccc2)cc1 (stereo unspecified) | 1 | 0 | / | / | 3 | / | / | -31 |
| CCOC(=O)C1CCCN(CC(=O)Nc2c(C(=O)OC)[nH]c3ccc(C)cc23)C1 (stereo unspecified) | -5 | -4 | 11 | -19 | -15 | i | 1 | 2 |
| COc1ccc(CNc2ccc(C)cc2)cc1Br | 0 | 2 | -5 | -133 | 5 | i | 2 | -12 |
| O=C(CCN1CCCC1)c1cccs1 | -2 | -3 | 16 | 0 | 7 | i | 0 | -7 |
| COC(=O)C(Cc1ccc(OC(=O)c2ccc(C(F)(F)F)cc2)cc1)N1Cc2ccccc2C1=O (stereo unspecified) | / | / | -7 | / | -3 | i | -10 | 15 |
| O=C(O)CC12CC3CC(C1)CC(n1ncc(NCc4ccc5c(c4)OCO5)c(Cl)c1=O)(C3)C2 | / | / | -6 | / | -1 | i | 25 | / |
| CCC(C)Oc1ccccc1C1CC(=O)NC2=C1C(=O)CCC2 (stereo unspecified) | -3 | -11 | -2 | / | 23 | i | -11 | -4 |
| O=C(Cn1cnc2c(nnn2Cc2ccc(Cl)cc2)c1=O)N1CCN(c2ccccc2)CC1 | 2 | -12 | 10 | 19 | -11 | / | -8 | -4 |
| O=C(NCCC1=CCCCC1)C1CCCN(S(=O)(=O)c2cnc[nH]2)C1 (stereo unspecified) | -1 | 3 | -2 | 11 | -5 | i | -2 | -12 |
| Cc1cc(C)n2nc(SCC(=O)Nc3ccccc3)nc2n1 | 1 | -2 | 5 | -4 | -8 | i | -6 | 26 |
| O=c1cc(-c2ccccc2)nc2nc[nH]n12 | 5 | -3 | 2 | 2 | -6 | i | -3 | -16 |
| CCc1nnc(NC(=O)c2cc(OC)c(OC)cc2[N+](=O)[O-])s1 | 2 | -2 | -2 | 7 | 9 | i | 0 | / |
| O=C(c1ccccc1)C1CCN(CC(=O)N2CCN(c3ccccc3)CC2)CC1 | -2 | -1 | 7 | -2 | / | i | 3 | 7 |
| COc1cccc(NC(=O)Nc2ccc(F)cc2)c1 | 3 | -2 | / | -6 | / | / | / | -14 |
| CCCC(NC(=O)c1ccco1)c1nc2ccccc2[nH]1 (stereo unspecified) | 4 | 2 | 20 | -49 | 4 | i | 2 | / |
| O=C1CCC(NC(=O)c2ccccc2)C(=O)N1 (stereo unspecified) | 0 | 0 | 10 | 20 | 1 | i | 4 | -16 |
| OCCN(CCO)CC(O)CN(c1ccccc1)c1ccccc1 (stereo unspecified) | 1 | 2 | 1 | 8 | -2 | i | -11 | -8 |
| CC(=O)N1CCCc2ccc(NS(=O)(=O)c3ccccc3)cc21 | 6 | 1 | / | 17 | 3 | i | / | / |
| COC(=O)c1nnn(-c2nonc2N)c1CSc1ccccn1 | -2 | 0 | 1 | / | 2 | i | -7 | -13 |
| O=C(Nc1ccccc1)Nc1ccc(Oc2ncnc3cc(Cl)ccc23)nc1 | / | / | -7 | / | -3 | i | -5 | / |
| Cc1ccc(NC(=O)c2sc(N)nc2C)cc1 | 2 | 2 | 4 | -20 | -13 | i | -8 | -23 |
| Nc1cc(C(=O)OCC(=O)NNC(=O)c2ccccc2F)ccc1Cl | 5 | -1 | / | 5 | -2 | / | / | -10 |
| COc1ccc(NC(=O)CSc2nnc(N)n2CC(=O)Nc2ccc(OC)cc2)cc1 | -2 | -4 | 2 | 1 | -12 | i | 7 | -13 |
| O=C(c1coc2ccccc2c1=O)N1CCN(c2cccc(C(F)(F)F)c2)CC1 | -8 | 1 | -3 | / | 10 | i | 5 | -4 |
| CCc1ccc(NC(=O)CCc2c(C)nn(-c3ccc(N4CCOCC4)nn3)c2C)cc1 | 2 | 0 | 2 | -8 | -3 | i | 1 | -7 |
| CCN(Cc1ccncc1)C(=O)c1cc(COc2c(F)cccc2F)on1 | 3 | -5 | -8 | 8 | -4 | i | -16 | -22 |
| CCOC(=O)CNC(=S)N(Cc1ccccc1)Cc1cccnc1 | -3 | 0 | -8 | 10 | -14 | i | 1 | 7 |
| CCCN(CCC)S(=O)(=O)c1ccc(C(=O)NNC(=O)c2cc(OC)c(OC)c(OC)c2)cc1 | -7 | -4 | 0 | -9 | 11 | i | -2 | 5 |
| COc1ccc(NC(=O)c2ccccc2[N+](=O)[O-])cc1 | 0 | 3 | 15 | / | -53 | i | -4 | -7 |
| C=C(C)COc1ccc(-c2[nH]ncc2-c2ccccc2OC)c(O)c1 | 2 | -8 | -1 | -143 | 1 | i | -8 | -14 |
| Cc1ccc(NC(=O)c2cc(C)n(-c3ccccc3)c2C)cc1 | -1 | 0 | 1 | -202 | 16 | i | -5 | -84 |
| CNC(=S)N/N=C(\C)c1cccc(C(F)(F)F)c1 | 0 | 2 | 5 | -7 | -11 | i | 2 | / |
| CC(C)NC(=O)C1(C)CCCN1C(=O)c1ccccc1Br (stereo unspecified) | 0 | 2 | / | 4 | / | / | / | -25 |
| CCn1c(=O)c(C(=O)NNC(=O)c2ccc(Cl)cc2Cl)c(O)c2ccccc21 | 3 | 2 | -4 | 4 | 20 | i | -3 | -20 |
| Cc1cc(OCC(=O)Nc2ccccn2)c2c(C)c(C)c(=O)oc2c1 | 2 | -1 | 2 | -8 | -7 | i | -7 | -14 |
| Cc1ccc2nc(-c3ccc(F)cc3)c(Cc3ccccn3)n2c1 | -1 | 1 | / | -75 | / | / | / | -5 |
| CCc1nnc(NC(=O)CN2CCN(c3cccc(OC)c3)CC2)s1 | -3 | 1 | 6 | / | -8 | i | -4 | -8 |
| NC(=O)c1ccc(C(F)(F)F)n(Cc2ccccc2Cl)c1=O | 3 | -6 | -4 | -30 | -2 | i | -6 | -22 |

One compound at a time, as listed above. Values in the order: MT1-MMP act inh | MT1-MMP act inh RFP | PABP FP inh | Env fusion inh | CSC inhib | Rce1 inhib | eIF4H inh | UUG fidelity
Cc1ccc2nc(-c3ccc(F)cc3)c(Cc3ccccn3)n2c1 is listed with -1 | 1 | / | -75 | / | / | / | -5
Cc1ccc(NC(=O)c2sc(N)nc2C)cc1 is listed with 2 | 2 | 4 | -20 | -13 | i | -8 | -23

(more compounds)
| smiles | MT1-MMP act inh | MT1-MMP act inh RFP | PABP FP inh | Env fusion inh | CSC inhib | Rce1 inhib | eIF4H inh | UUG fidelity |
| --- | --- | --- | --- | --- | --- | --- | --- | --- |
| C=C(C)CSc1nc2ccccc2c(=O)n1-c1c(C)n(C)n(-c2ccccc2)c1=O | -1 | 1 | -9 | 11 | -5 | i | 4 | / |
| COc1ccccc1C(=O)Nc1ccc2c(c1)CCCN2C(=O)c1ccccc1 | 1 | -9 | -8 | -7 | 43 | i | -4 | 8 |
| COc1ccc(S(=O)(=O)N2CCC(C(=O)NC(c3nc4ccccc4[nH]3)C(C)C)CC2)cc1 (stereo unspecified) | -5 | 1 | / | / | -16 | / | / | -20 |
| CCn1nc(C)cc1C(=O)Sc1cccc(Br)c1 | -1 | 4 | -9 | 6 | 48 | i | -4 | -19 |
| NS(=O)(=O)c1ccc(CCNC(=O)C2(S(=O)(=O)c3ccc(Cl)cc3)CC2)cc1 | 5 | 1 | 1 | -3 | -1 | i | -7 | -4 |
| Cc1nnc(SCCN2C(=O)c3ccccc3C2=O)[nH]c1=O | 3 | 4 | -2 | / | -8 | i | 1 | -22 |
| Cc1ccc2cc(CN(Cc3ccco3)C(=O)NCc3ccccc3)c(=O)[nH]c2c1C | -5 | -6 | 12 | / | -21 | i | 6 | -6 |
| Cn1ccnc1SCC(=O)c1ccc([N+](=O)[O-])cc1 | 1 | 7 | -8 | -16 | -7 | i | -8 | / |
| CC(C)c1ccc(-c2csc3nc[nH]c(=O)c23)cc1 | 2 | -12 | -12 | -105 | -24 | i | -12 | -22 |
| COc1ccc(NC(=O)CSc2ccc3ccccc3c2)cc1S(=O)(=O)N1CCCCC1 | 14 | -12 | 2 | 56* | 14 | i | 2 | / |
| Cc1cc(N(C)/N=C/c2ccccc2O)nc(-c2ccccc2O)n1 | -3 | 0 | -1 | 0 | / | i | 6 | -5 |
| O=C(Cc1cccs1)N(CC1CCCO1)C1(C(=O)NC2CCCC2)CCCCC1 (stereo unspecified) | -1 | 1 | -2 | 6 | -4 | i | -8 | -31 |
| CN(C)CCOCCOc1ccc(Cl)cc1C(C)(C)C | -4 | 0 | -2 | 8 | 48 | i | -4 | / |
| Cc1cc(C(F)F)n2nc(C(=O)O)nc2n1 | 0 | 0 | 19 | -18 | -7 | / | -4 | / |
| COc1ccc(CCNC(=O)CN(C)S(=O)(=O)c2ccc(Br)s2)cc1OC | 2 | -2 | 5 | 2 | -3 | i | -8 | / |
| Cc1ccccc1CC1(CO)CCCN(C(=O)c2ccoc2)C1 (stereo unspecified) | 2 | 3 | / | -7 | / | / | / | -19 |
| CN(C)CCCNC(=O)c1cc(C(=O)c2c(Cl)cccc2Cl)c[nH]1 | 2 | 7 | -6 | -2 | 8 | i | 1 | -24 |
| C=CCNc1cc(C)oc(=O)c1C(=O)CCC | 4 | -1 | 0 | 11 | -23 | i | -2 | -15 |
| CN=C(Nc1cc(C)nn1-c1ccccc1)c1ccccc1 | -3 | 0 | 2 | -6 | -27 | i | -2 | -23 |
| O=C(Nc1ccc(NC(=O)C2CC2)nc1)c1cccs1 | 5 | 5 | 0 | / | 8 | i | -7 | -12 |
| Cn1c(SCc2ccc(F)cc2Cl)nc2ccccc2c1=O | 8 | -27 | / | 16 | / | / | / | -15 |
| CC(C)(C)C(=O)Nc1ccc(C(=O)NCc2cccnc2)cc1 | 2 | 5 | 13 | / | 20 | i | 2 | -21 |
| O=C(c1cnn(Cc2ccccc2)c1)N1CCN(S(=O)(=O)/C=C/c2ccccc2)CC1 | 5 | 0 | / | 8 | -17 | / | / | -3 |
| O=C(COC(=O)c1cccnc1Cl)NC1CCCCCC1 | -5 | -4 | / | 25 | -14 | / | / | -16 |
| O=C(Cc1ccc(Cl)cc1)NNC(=O)Nc1cccc2ccccc12 | -2 | -3 | 1 | / | -15 | i | -8 | -16 |

Structures above that have fluorine, in the order listed:
| smiles | MT1-MMP act inh | MT1-MMP act inh RFP | PABP FP inh | Env fusion inh | CSC inhib | Rce1 inhib | eIF4H inh | UUG fidelity |
| --- | --- | --- | --- | --- | --- | --- | --- | --- |
| COC(=O)C(Cc1ccc(OC(=O)c2ccc(C(F)(F)F)cc2)cc1)N1Cc2ccccc2C1=O (stereo unspecified) | / | / | -7 | / | -3 | i | -10 | 15 |
| COc1cccc(NC(=O)Nc2ccc(F)cc2)c1 | 3 | -2 | / | -6 | / | / | / | -14 |
| Nc1cc(C(=O)OCC(=O)NNC(=O)c2ccccc2F)ccc1Cl | 5 | -1 | / | 5 | -2 | / | / | -10 |
| O=C(c1coc2ccccc2c1=O)N1CCN(c2cccc(C(F)(F)F)c2)CC1 | -8 | 1 | -3 | / | 10 | i | 5 | -4 |
| CCN(Cc1ccncc1)C(=O)c1cc(COc2c(F)cccc2F)on1 | 3 | -5 | -8 | 8 | -4 | i | -16 | -22 |
| CNC(=S)N/N=C(\C)c1cccc(C(F)(F)F)c1 | 0 | 2 | 5 | -7 | -11 | i | 2 | / |
| Cc1ccc2nc(-c3ccc(F)cc3)c(Cc3ccccn3)n2c1 | -1 | 1 | / | -75 | / | / | / | -5 |
| NC(=O)c1ccc(C(F)(F)F)n(Cc2ccccc2Cl)c1=O | 3 | -6 | -4 | -30 | -2 | i | -6 | -22 |
| Cc1cc(C(F)F)n2nc(C(=O)O)nc2n1 | 0 | 0 | 19 | -18 | -7 | / | -4 | / |
| Cn1c(SCc2ccc(F)cc2Cl)nc2ccccc2c1=O | 8 | -27 | / | 16 | / | / | / | -15 |

From PubChem BioAssay
